From PubChem
D2 ag – Beta-Arrestin HTS for Positive Allosteric Modulators of the Human D2 Dopamine Receptor: Agonists; DiscoveRx PathHunter D2 beta-arrestin, luminescence, 90 min; 100% = 57 uM dopamine signal; activation, % (concentration not given with the values); 0.084% of 360,000 active; D(2) dopamine receptor (Homo sapiens), P14416; in the data active = activation above about 40%; inconclusive = about 15% to 40%; inactive = below about 15%; further: compound concentration not given in the record; the text of the record calls up to 30% inactive
Target sequence (P14416 whole entry, looked up): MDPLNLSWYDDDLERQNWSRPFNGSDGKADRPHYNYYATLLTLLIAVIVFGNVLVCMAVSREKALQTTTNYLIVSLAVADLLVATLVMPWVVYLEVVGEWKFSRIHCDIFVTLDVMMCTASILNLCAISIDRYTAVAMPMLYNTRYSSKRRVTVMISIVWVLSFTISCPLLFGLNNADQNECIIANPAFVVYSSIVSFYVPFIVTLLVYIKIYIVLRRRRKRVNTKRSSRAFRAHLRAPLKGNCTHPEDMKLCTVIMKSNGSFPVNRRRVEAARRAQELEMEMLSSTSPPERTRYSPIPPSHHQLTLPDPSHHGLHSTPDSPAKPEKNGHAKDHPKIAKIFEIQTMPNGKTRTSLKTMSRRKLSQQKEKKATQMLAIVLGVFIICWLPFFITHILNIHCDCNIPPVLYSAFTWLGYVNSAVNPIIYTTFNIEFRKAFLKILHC
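Agonist mode: compounds alone added to overnight-plated D2 PathHunter cells for 90 min at 37 C, with 57 uM final dopamine (EC100) defining full response. Beta-arrestin recruitment detected by chemiluminescent reagent, read after 1 h at ambient temperature.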
PINK1 expr mod – A Quantitative High throughput Screen to Identify Chemical Modulators of PINK1 Expression; AID 624263, 2012; PINK1 immunofluorescence, high-content cytometry, 24 h; Potency, µM (top dose mostly 76.6 µM), for inactives: at the top dose activation (PINK1 increase), usual class: activators; 0.2% of 410,000 active; active = well fitted activation curve with a large enough effect; inconclusive = small, poorly fitted or top-dose-only effect; inactive = flat fitted curve, though single readings scatter; cell line not stated here;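 further: potency means the concentration at half of the fitted maximal effect; % of control where 0% means no effect; nearly all actives have a fitted effect of over 65% in size; a mitochondrial uncoupler was the plate control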
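A stable cell line was treated with compounds at 5 concentrations for 24 hours, with CCCP as control. PINK1 levels and mitochondrial localization were measured by immunofluorescence with mitochondrial, cell and nuclear markers after fixation, read by laser-scanning cytometry.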
D2 PAM – Beta-Arrestin HTS for Positive Allosteric Modulators of the Human D2 Dopamine Receptor: Potentiators | D(2) dopamine receptor (Homo sapiens), P14416 | DiscoveRx D2 beta-arrestin cells, luminescence, 90 min; 100% = 57 uM dopamine signal | potentiation, % (test concentration not listed) | 0.23% of 360,000 active | AID 624464, 2012; active = potentiation of 50% or more; inconclusive = 30% to 50%; inactive = 30% or less;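 further: compound concentration not given in the record; tested on top of an EC20 dose of dopamine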
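D2 cells co-treated with compound plus 50 nM dopamine (EC20) for 90 min at 37 deg C to detect potentiation. Beta-arrestin recruitment was read as enzyme-fragment luminescence after 1 h at ambient temperature. Full response was set by 57 uM dopamine.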
TRPML1 agonist – qHTS for Agonists of the Human Mucolipin Transient Receptor Potential 1 (TRPML1). TRPML1-expressing cells, Ca2+ dye fluorescence, FDSS; host cell line not named in the record; reference of the full effect not given here. activation, % (concentration not given with the values). 0.12% of 410,000 active. Mucolipin-1 (Homo sapiens), Q9GZU1; in the data active = activation above about 50%; inconclusive = about 30% to 50%; inactive = below about 30%; further: 0% is about no effect; the text of the record puts the active cut at 80%
Target sequence (Q9GZU1 whole entry, looked up): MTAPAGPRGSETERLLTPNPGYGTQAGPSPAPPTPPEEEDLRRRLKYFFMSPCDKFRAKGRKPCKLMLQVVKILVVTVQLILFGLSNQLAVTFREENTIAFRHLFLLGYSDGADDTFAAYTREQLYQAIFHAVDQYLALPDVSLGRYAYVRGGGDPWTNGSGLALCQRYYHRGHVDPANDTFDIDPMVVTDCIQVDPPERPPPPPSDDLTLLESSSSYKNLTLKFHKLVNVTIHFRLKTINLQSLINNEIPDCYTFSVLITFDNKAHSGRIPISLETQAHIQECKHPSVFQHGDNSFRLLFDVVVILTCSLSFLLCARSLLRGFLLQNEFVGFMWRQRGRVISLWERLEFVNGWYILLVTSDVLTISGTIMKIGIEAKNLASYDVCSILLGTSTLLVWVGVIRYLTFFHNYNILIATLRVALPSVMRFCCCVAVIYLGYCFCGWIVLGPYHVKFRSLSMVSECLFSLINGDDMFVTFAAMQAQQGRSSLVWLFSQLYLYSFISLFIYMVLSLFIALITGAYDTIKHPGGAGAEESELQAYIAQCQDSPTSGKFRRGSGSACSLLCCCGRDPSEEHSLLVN
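Tet-induced TRPML1-DL cells, 1,500 per well, cultured overnight, were loaded with a no-wash Ca2+ dye for 45–90 min. Calcium fluorescence was recorded on the FDSS for 110 s after compound addition, before the EC80 agonist (4 uM 54-4) was added.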
Six1-Eya2 inh – qHTS Assay for Inhibitors of the Six1/Eya2 Interaction | AlphaScreen GST-Six1/His-Eya2 binding, biochemical; active compounds read low; control for the full effect not named in the record | AID 651725, 2012 | 0.56% of 360,000 active | Homeobox protein SIX1 (Homo sapiens) + Protein phosphatase EYA2 (Homo sapiens), … | activity change, % (no concentration beside the values); in the data active = activity change below about -65%; inconclusive = about -30% to -65%; inactive = above about -30%; further: on the % scale 0 is the no-effect control and ±100 the full control effect
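Six1/Eya2 binding was read as AlphaScreen signal after compounds were pinned into GST-Six1 plus His-tagged Eya2 (5X stock 250/500 nM) in pH 8.0 Tris/NaCl/TCEP buffer, beads added, then incubated 1 h, 37 C, dark.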
TRPML1 inh – qHTS for Inhibitors of the Human Mucolipin Transient Receptor Potential 1 (TRPML1); Mucolipin-1 (Homo sapiens), Q9GZU1; TRPML1-inducible cells, Ca2+ dye fluorescence, FDSS; active compounds read low; inhibition of EC80 agonist-evoked calcium signal; activity change, negative = inhibition, % (test concentration not listed); 0.02% of 390,000 active; in the data active means activity change below about -50%; inconclusive means about -30% to -50%; inactive means above about -30%;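 further: stimulus is agonist 54-4 at its EC80 concentration; on the % scale 0 is the no-effect control and ±100 the full control effect; compound concentration not given in the record; the text of the record puts the active cut at -80%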
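Tet-induced TRPML1-DL cells loaded with Ca8 no-wash calcium dye were read kinetically on FDSS. Compound addition was followed by EC80 agonist 54-4 (4 uM final); inhibition was read over 110 s.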
* = called active by the depositor; ? = inconclusive; . = not tested or not shown; [ ] = another dose, or the depositor's remark.

Screens in order: D2 ag, PINK1 expr mod, D2 PAM, TRPML1 agonist, Six1-Eya2 inh, TRPML1 inh
O=C(O)CC1(CC(=O)Nc2ccc(Oc3cccc(C(F)(F)F)c3)nc2)CCCC1
    6.9, 1.8%, 7, 0.8, 3, -5
CCOc1ccc(/C=C/C(=O)CCC(=O)O)cc1
    -5.3, -0.9%, -3, 0.7, -1, -10
CCC(C)[C@H](NC(=O)Nc1ccc(S(N)(=O)=O)cc1)C(=O)O (some centres not stated)
    0.2, 0.1%, 6, 0.6, 1, 1
N#Cc1ccsc1NC(=O)C1CCN(C(=O)c2ccc(Cl)cc2)CC1
    -1.4, 3.8%, -15, 0.1, -1, -9
COc1ccc(CN2CC(C(=O)NCc3ccccn3)CC2=O)cc1 (configuration not stated)
    0.4, 3.8%, -24, -0.1, -20, 7
C=C[C@](C)(CC[C@@]1(C)C(C)CC(OC2OC(C)C(OC3OC(COC(C)=O)C(O)C(O)C3O)C(O)C2O)[C@@]2(C)C(C)=CCCC12)OC1OC(C)C(O[C@@H]2O[C@@H](C)C(O)C(O)[C@H]2O)C(O)C1O (some centres not stated)
    -0.2, 1.1%, ., -0.2, 2, -18
CC(=O)Nc1ccc(S(=O)(=O)NCc2nc(-c3cccc(C)c3)no2)cc1
    0.8, 0.9%, 0, 1.1, 7, -15
Cc1[nH][nH]c(=O)c1C(c1cc([N+](=O)[O-])ccc1O)c1c(C)[nH][nH]c1=O
    -6.6, 2.2%, -29, 0.9, -18, -14
Cc1ccc(CCNc2ccccc2)c[n+]1[O-]
    -3.0, -3.2%, -4, -0.7, 2, -18
COc1ccc(NC(=S)NNc2ccc(S(=O)(=O)Nc3ccccc3C(=O)O)cc2[N+](=O)[O-])cc1
    -14, 2.0%, -35, ., ?, .
CC(=O)NC1CCC(=O)C=C1c1ccccc1 (configuration not stated)
    0.3, -4.7%, -35, -0.2, 7, -5
Cc1ccc(NC(=S)NCCc2ccc(F)cc2)c(C)c1
    -1.1, -3.2%, -18, -0.2, -16, 5
CCOC(=O)c1nn(-c2ccccc2)c2nnc(Cc3ccccc3)c(=O)n12
    -0.3, -2.3%, -9, 0.1, 19, -3
NS(=O)(=O)c1cccc(NC(=O)CC23CC4CC(CC(Br)(C4)C2)C3)c1
    1.1, 2.6%, -4, -0.3, -2, -2
COc1cccc(NC(=S)N(Cc2ccc(C)cc2)Cc2ccccn2)c1
    -4.1, -0.7%, -12, 0.8, -16, -19
Oc1[nH]c2ccccc2c1N=NC(=S)NCC1CCCO1 (configuration not stated)
    -1.1, 8.1%, -13, -0.4, -25, 1
CCCCOc1ccc(C(=O)N2CCC(C)CC2)cc1
    -3.6, -2.4%, -8, -0.6, 27, -5
CCc1nc2ccccc2n1CC(=O)NC1CCS(=O)(=O)C1 (configuration not stated)
    -2.4, -0.3%, -37, 0.2, -2, -7
COc1ccc(C(O)P(=O)(OC(C)C)c2ccc(N(C)C)cc2)c(OC)c1 (configuration not stated)
    -4.6, 1.4%, -7, 0.5, 3, 16
O=C(CCn1ccc2cc(S(=O)(=O)N3CCCC3)ccc21)NCc1cccc(Cl)c1
    ., -1.2%, ., 0.6, ., -3
Cc1cc(C(F)(F)F)nc(SCC(=O)Nc2nccs2)n1
    -3.0, 3.2%, -8, 0.4, 0, -1
COc1cc(OC)cc(-c2nnc(SCC(=O)N3CCCC3)o2)c1
    2.3, -0.6%, -2, 0.1, 3, -26
Cn1c(N)c(C(=O)COC(=O)COc2ccc(Br)cc2)c(=O)n(C)c1=O
    -3.4, -0.9%, -12, 0.4, -12, 5
Cc1ccc(C)c(N2CCN(C(=S)NC3CCCCC3)CC2)c1
    1.5, 17%, 5, 0.5, 0, -1
COCCN(CC(=O)Nc1ccccc1C(F)(F)F)C(=O)/C=C/c1cc(Cl)c2c(c1)OCCO2
    1.3, 1.4%, -14, 3.4, -7, -1
CC(=O)NS(=O)(=O)c1ccc(N=c2ssc3c2-c2cc(C)c(C)cc2NC3(C)C)cc1
    -4.8, -1.3%, -6, -0.5, -17, 58
CC(C)c1c(C(=O)N/N=C/c2cccnc2)nnn1-c1nonc1N
    -3.6, -0.1%, 1, 0.1, 2, -15
Cc1nnc2sc(-c3ccc(N(C)C)cc3)nn2c1=O
    -4.0, -0.1%, -12, 1.0, -7, -12
Cn1c(SCc2ccccc2)nccc1=O
    1.0, 2.4%, -26, 0.3, 1, 27
COc1ccc(Cl)cc1NC(=O)CSc1nc2[nH]ncc2c(=O)[nH]1
    -1.9, 4.1%, -14, -0.3, -7, 26
O=C(CSc1nc(O)c(Cc2ccccc2)c(=O)[nH]1)Nc1nc2c(s1)CCCC2
    -6.3, 0.4%, -5, 1.4, 5, -5
COc1ccc(-c2ccc(CN3C(C(C)C)C(=O)N(Cc4cn(CCC5OCCCO5)nn4)CCS3(=O)=O)cc2)cn1 (configuration not stated)
    -6.6, 1.5%, 0, -0.7, -3, 5
COc1ccc([N+](=O)[O-])cc1NC(=O)Cc1noc2ccc(C)cc12
    -2.3, 7.7%, -3, -1.0, 3, 4
O=S(=O)(Nc1cc(S(=O)(=O)N2CCOCC2)ccc1Cl)c1ccccc1
    1.8, 0.0%, 4, 1.3, 4, -22
CC(C)n1cnnc1SCC(=O)Nc1ccc(N2CCCCC2)cc1
    -5.3, 4.9%, -5, 0.0, 3, -3
COc1ccc(Cc2c(C(C)(C)C)nc3ccc(Br)cn23)c(C)c1
    2.9, ?, -1, -0.2, 19, -2
CCO[C@H]1OC(C(=O)Nc2ccccc2)=C[C@@H](c2csc3ccccc23)[C@@H]1CCCO
    -1.0, 1.9%, -1, 1.4, -4, -4
O=C(CNS(=O)(=O)c1ccc(Br)s1)N1CCC(N2CCCCC2)CC1
    -2.7, -0.7%, -10, 0.3, -1, -8
CCOC(=O)N1CCC(NC(=O)c2cc(C(=O)NCc3cccc(Cl)c3)ccc2CO)CC1
    -1.1, -0.8%, -8, 0.0, -2, 2
CCOc1ccccc1NC(=O)C(=O)NCCc1sc(-c2cccc(F)c2)nc1C
    ., 0.5%, ., 0.4, ., -21
CC1(C)C(=O)Nc2ccccc2N1C(=O)COC(=O)c1ccc(Cl)c(S(=O)(=O)NCc2ccccc2)c1
    1.2, 3.1%, 12, 1.7, -12, -1
CCOc1cc(/C=N/NC(=O)c2cccnc2)ccc1OCC(=O)N1CCOCC1
    1.5, 0.9%, -12, 0.4, 8, 18
O=C(COC(=O)CCCN1C(=O)c2ccccc2C1=O)Nc1ncc(Cl)cc1Cl
    -2.8, 2.1%, 3, 0.2, -6, -12
O=C1c2ccccc2-c2c1c1ccccc1c(=O)n2-c1ccccc1
    3.3, 1.4%, 6, 1.7, -20, -8
N=C1CCC(=N)c2c1c(O)c1ccccc1c2O
    9.0, -0.4%, 14, -0.8, -16, -7
Cc1cc(CNC(=S)Nc2ccc(S(=O)(=O)Nc3ncccn3)cc2)nn1C
    -0.2, -0.9%, -3, 0.8, 3, -6
CCOc1ccc(Cl)cc1S(=O)(=O)N1CCN(c2ccc(F)cc2)CC1
    0.4, -0.8%, 10, 2.1, -4, 32
COc1ccc(N(Cc2ccccc2)S(=O)(=O)c2cccc(C(=O)O)c2)cc1
    -4.7, 0.8%, -8, -0.8, 6, 9
Cc1ccc(NC(=O)C2CCCN2C(=O)NC2CCCCC2)cc1F (configuration not stated)
    2.4, 8.2%, 2, -0.2, 5, -7
COc1ccc2[nH]c(=O)c(CN(C3CCCCC3)C(c3nnnn3Cc3ccco3)C(C)C)cc2c1 (configuration not stated)
    -3.0, 4.1%, -12, -1.2, -21, -4

Two neighbouring compounds already listed, for reference:
Screens in order: D2 ag, PINK1 expr mod, D2 PAM, TRPML1 agonist, Six1-Eya2 inh, TRPML1 inh
CC1(C)C(=O)Nc2ccccc2N1C(=O)COC(=O)c1ccc(Cl)c(S(=O)(=O)NCc2ccccc2)c1
    1.2, 3.1%, 12, 1.7, -12, -1
CCOc1cc(/C=N/NC(=O)c2cccnc2)ccc1OCC(=O)N1CCOCC1
    1.5, 0.9%, -12, 0.4, 8, 18

Further entries
Screens in order: D2 ag, PINK1 expr mod, D2 PAM, TRPML1 agonist, Six1-Eya2 inh, TRPML1 inh
COC(=O)c1ccc2cc(F)cc(C)c2n1
    -3.1, 0.6%, -8, 0.1, 7, .
CC(C)c1ccc(S(=O)(=O)c2nnn3c2nc(N2CCCCC2)c2sccc23)cc1
    ., 0.2%, ., 1.4, ., 20
O=C(CCS(=O)(=O)c1cccc2nsnc12)N1CC(=O)N(CCc2ccccc2)C(=O)C1
    -2.2, -1.6%, 1, 0.2, -5, 0
O=C(c1ccccc1Cc1ccccc1)N1CCN(S(=O)(=O)c2ccccc2Br)CC1
    4.1, -1.7%, 15, 1.0, -9, 59
CCOC(=O)[C@]12CCC=C1N(Cc1cccc3ccccc13)C(=O)[C@H](CC(=O)N1CCOCC1)C2
    ., 17%, ., -0.1, -7, .
CCOc1ccc(N(CCC#N)S(=O)(=O)c2ccc(OC)cc2)cc1
    0.3, -2.5%[38.3 µM], -12, 0.8, 3, -5
COc1ccc2nc(C3CCCCC3)c3c(c2c1)CCC3
    -3.1, 14%, -9, 1.0, 11, 18
CCOc1ccc(C(=O)CCC(=O)NN2CCCCC2)cc1
    -3.5, 1.8%, -3, -0.1, -1, -3
COc1cc(/C=C/c2nc(C#N)c(N3CCC(C)CC3)o2)cc(OC)c1OC
    ., -0.9%, ., 3.0, ., -3
CCCCCC1CC(=O)NC1(C(=O)OCC)C(=O)OCC (configuration not stated)
    -1.8, 1.0%, -2, 0.4, -12, 17
Cc1nccn1-c1c2c(c(C#N)c3nc4ccccc4n13)CCCC2
    -0.3, -2.5%, 1, 0.7, -1, 10
CC(C)CC(=O)N1CCC(O)(CS(=O)(=O)Cc2ccccc2Cl)CC1
    -4.3, -2.4%, 5, 0.1, 1, -4
Cc1ccc(NCC(=O)N/N=C\c2ccc[nH]2)cc1
    6.6, 2.7%, 0, 1.3, -9, 9
O=C(CSc1n[nH]c(=O)n1C1CC1)Nc1ccc(Cl)cc1Cl
    0.1, 1.2%, -1, 0.4, 5, 3
CN(C)S(=O)(=O)Nc1ccccc1C(N)=O
    -2.5, -0.1%, -10, 0.7, 6, -9
CC(C)c1nc(SCC(=O)N2CCCCCC2)c2c(=O)n(C)c(=O)n(C)c2n1
    7.5, 0.0%, 17, -0.5, 2, -1
O=C(Nc1cc2c(cc1Br)OCCO2)c1cccnc1
    1.9, -0.2%, -1, -0.4, 5, 7
Cc1ccc(C(CC(=O)N2CCCC2)c2ccccc2)c(O)c1C (configuration not stated)
    -2.0, -0.9%, 1, 5.8, 8, 13
CCOC(=O)C1CCN(C(=O)/C=C/c2ccc3c(c2)OCO3)CC1
    -1.3, -0.4%, -5, -0.6, 5, 34
O=C(COC(=O)COc1ccc(Cl)cc1)Nc1ccc(N2CCOCC2)cc1
    1.2, -1.2%, 3, 1.1, 0, -20
